Insulin prom inh: TRM-6 insulin promoter activity inhibition; TRM-6 cells (human fetal islet line), insulin promoter-eGFP reporter, imaging; reporter expression induced with tamoxifen; inhibition, % at 2 µM; 130,000 compounds, 0.9% hits; AID 1273;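 active = inhibition above the mean plus 3 SD, with well images judged a real hit on visual review, cut at about 60% in these data, passing the limit was not always enough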
GALR2 ag: activates the human galanin receptor 2; 140,000 compounds, 0.48% hits; activation, %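 (tested at 5 µM)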; GALR2-expressing cells, agonist activation read-out; O43603;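 active = above mean plus 3 SD of all compounds, about 5% in these data, not always enough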;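 also: 0% = vehicle buffer wells and 100% = reference agonist at full effect; tested in CHO reporter cells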
Target sequence (O43603 whole entry, looked up): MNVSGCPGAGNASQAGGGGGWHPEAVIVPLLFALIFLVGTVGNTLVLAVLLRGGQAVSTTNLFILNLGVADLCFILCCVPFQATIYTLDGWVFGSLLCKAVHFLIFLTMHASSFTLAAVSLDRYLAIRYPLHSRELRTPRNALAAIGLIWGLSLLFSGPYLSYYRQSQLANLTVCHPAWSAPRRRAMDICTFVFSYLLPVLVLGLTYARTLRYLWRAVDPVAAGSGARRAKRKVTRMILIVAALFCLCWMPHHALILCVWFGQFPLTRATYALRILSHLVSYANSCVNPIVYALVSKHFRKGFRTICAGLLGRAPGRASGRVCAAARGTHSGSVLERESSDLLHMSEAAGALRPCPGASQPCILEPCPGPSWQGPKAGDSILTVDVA
PKD1 kinase inh: blocks activity of human protein kinase D1. inhibition, %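 (about 10 µM by stock and volumes)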. PKD1 kinase fluorescence polarization assay. AID 797. 200,000 compounds, 0.056% hits;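 active = inhibition of 50% or more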;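 also: controls were vehicle for no effect and a reference inhibitor for full effect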
HSV replic up: increases HSV replication in cells; 220,000 compounds, 0.005% hits; maximum fold increase; HSV replication augmentation in cells, fold increase;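 active = peak rise of 1.5-fold or more in the series; tested in PC3 cells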;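 also: first round at 10 µM; read as green reporter fluorescence; hits show the peak of a series up to 25 µM; 1 = signal of infected wells without compound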
RGS16-Gao HTS: regulators of human RGS16-Galphao interaction | 220,000 compounds, 0.38% hits | bead-based flow cytometry RGS16-Galphao binding, fluorescence; actives lie on both sides | binding response (% of control), % at 10 µM | O15492+P09471 | AID 1441;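 active = below 25% or above 175%, edge rows of some plates excepted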;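 also: Galphao activated by GDP with aluminum fluoride before binding; 100% = wells without compound and 0% = beads without RGS; some results beyond the cut were filed as inactive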
Target sequence (O15492 whole entry, looked up): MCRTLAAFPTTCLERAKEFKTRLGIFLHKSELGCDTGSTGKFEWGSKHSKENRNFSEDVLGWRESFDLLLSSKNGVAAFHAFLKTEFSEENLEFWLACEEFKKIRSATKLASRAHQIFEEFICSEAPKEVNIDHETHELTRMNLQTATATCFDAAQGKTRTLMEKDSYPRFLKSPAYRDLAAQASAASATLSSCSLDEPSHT
Target sequence (P09471 whole entry, looked up): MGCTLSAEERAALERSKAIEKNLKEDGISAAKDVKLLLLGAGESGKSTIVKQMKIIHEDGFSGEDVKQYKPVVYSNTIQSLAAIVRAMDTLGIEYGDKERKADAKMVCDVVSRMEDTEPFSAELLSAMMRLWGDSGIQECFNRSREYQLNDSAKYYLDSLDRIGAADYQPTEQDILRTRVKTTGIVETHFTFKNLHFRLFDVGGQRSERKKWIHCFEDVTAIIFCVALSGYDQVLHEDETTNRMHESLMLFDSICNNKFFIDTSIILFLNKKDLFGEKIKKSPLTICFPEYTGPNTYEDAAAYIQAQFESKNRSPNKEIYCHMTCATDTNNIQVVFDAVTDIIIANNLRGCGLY
Insulin prom inh cell count: also measured in Insulin prom inh; calls as there; normalized cell count, %; measured here: cell count, toxicity; reference of the scale not given here;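 cells exposed to compound for 48 h; stained nuclei by imaging scaled within each plate; lower means fewer cells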
HSV replic up primary fold: recorded beside HSV replic up, whose call it bears; fold increase; compound at 10 µM; measured here: primary screen fold increase 10 uM; tested in PC3 cells;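 GFP signal in the first replicate; 1 = infected wells without compound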
Starred values were filed as active, the others as inactive; i = inactive; nt = no result given.

SMILES	Insulin prom inh	Insulin prom inh cell count	GALR2 ag	PKD1 kinase inh	HSV replic up	HSV replic up primary fold	RGS16-Gao HTS
O=C(CC12CC3CC(CC(C3)C1)C2)Nc1ccc2c(c1)COC2=O	-2	52	-0.2	-7	i	1	100
CNC(=O)NC1CCCCc2sccc21 (centres undefined)	nt	nt	-1.4	4	i	1.4	99
CC1C/C(=N\NC(N)=S)c2cc(Cl)ccc2S1 (centres undefined)	nt	nt	nt	nt	i	0.98	100
O=C(O)Cn1c(SCCOc2ccccc2)nc2ccccc21	45	155	-2.5	-12	i	1	111
COc1ccc(N2CCN(C(=O)CCc3nc(-c4ccc(C)cc4)no3)CC2)cc1	-48	94	-2.6	2	i	1	94
O=c1c2cccnc2[nH]c(=S)n1Cc1ccccc1	nt	nt	-0.5	4	i	1.2	87
CCOC(=O)c1ccc(-c2ccc(/C=C(\C#N)C(=O)NCC3CCCO3)o2)cc1 (centres undefined)	nt	nt	0.3	3	i	0.73	100
COC(=O)c1cc(NC(=O)c2cc(-c3ccc(C(F)(F)F)cc3)oc2C(F)(F)F)ccc1N1CCOCC1	nt	nt	nt	nt	i	1.1	103
Cc1ccc(CNC(=O)[C@H]2C[C@@H]2[C@H](NP(=O)(c2ccccc2)c2ccccc2)c2ccccc2)o1	-36	88	-1.4	9	i	0.95	93
Cc1ccc(CN2C(=O)CCC2C(=O)NCc2ccc(F)cc2)cc1 (centres undefined)	-13	82	-2.4	-11	i	1.1	105
c1ccc(NCc2nc3ccccc3n2CCOc2ccccc2)cc1	6	107	-1.2	-11	i	0.81	103
CCSc1nc2ccccc2n1S(=O)(=O)c1ccccc1	nt	nt	-2.5	5	i	0.84	103
O=C1Nc2ccccc2C12NCCc1c2[nH]c2ccccc12 (centres undefined)	7	38	-1.0	-11	i	1.1	95
CSc1nc2nc(-c3ccc(F)cc3)c(CCN3CCN(C)CC3)cn2n1	nt	nt	nt	-3	i	0.89	102
O=C(O)Cc1ccc(OCc2ccc(Cl)nc2)cc1	19	114	nt	-3	i	0.87	98
CCCn1c(SCC(=O)NCc2ccc(F)cc2)n[nH]c1=O	-32	60	nt	6	i	1	89
COc1ccc(C(=O)CC2SC(N)=NC2=O)cc1 (centres undefined)	nt	nt	nt	nt	i	1.1	101
CCCS(=O)(=O)N1CCC(C(=O)c2cccc(C(F)(F)F)c2)CC1	nt	nt	-0.9	-3	i	1	13
Cc1ccc(-c2csc(NC(=O)c3cccc(S(=O)(=O)N4CCN(C)CC4)c3)n2)cc1	nt	nt	0.1	-12	i	0.95	105
O=C(CSc1nc2c(c(=O)n1-c1ccc(F)cc1)SCC2)Nc1ccc2c(c1)OCO2	22	106	1.1	4	i	1.2	nt
COC(=O)Cc1ccc(Oc2ncc(C(F)(F)F)cc2Cl)cc1	nt	nt	nt	-1	i	0.97	99
O=C(Cc1ccc(Cl)cc1)OCc1nnc(-c2ccccc2)o1	nt	nt	nt	4	i	0.88	101
COc1ccc(CNC(=O)CSc2nn3c(=O)c(C(C)(C)C)nnc3s2)cc1OC	nt	nt	nt	-2	i	0.99	103
COc1ccc(-n2cnnc2SCC(=O)c2cc(C)n(Cc3cccs3)c2C)cc1	-12	136	-2.9	5	i	0.81	101
O=C(NCc1ccco1)c1cc(-c2ccc(Cl)cc2)on1	nt	nt	-3.5	-14	i	0.94	79
CCCCN(CC)S(=O)(=O)N1CCC(C(=O)NCc2ccc(F)cc2)CC1	-44	87	-1.1	-7	i	1	88
CCNC(=O)Nn1c(-c2ccccc2)nc2ccccc2c1=O	-23	86	-2.0	-2	i	1.1	103
O=C(Nn1cnc2ccccc2c1=O)C1CCCCC1	-44	154	-0.5	-10	i	1.2	102
COC(=O)c1ccc(N/C=C/C(=O)c2ccc(OC)c(OC)c2)cc1	nt	nt	-0.2	-3	i	1	102
Cc1[nH]c2ccccc2c1/C=N/NC(=O)CCC(=O)NCc1ccccc1	nt	nt	nt	-3	i	0.92	121
CCOc1ccc(CCNC(=O)CCn2cccc2)cc1OCC	-36	148	-0.1	21	i	1.1	103
COc1ccc(CCNC(=O)CSc2nnnn2C)cc1OC	nt	nt	nt	-8	i	0.89	111
Cc1cc(C(=O)N/N=C/c2cc(Br)cc(Br)c2OC(=O)c2ccccc2)n[nH]1	nt	nt	-0.7	-13	i	0.82	91
C=CCN1C(=O)C(CC(=O)Nc2ccc(OCCC)cc2)N(CCCN2CCN(Cc3ccccc3)CC2)C1=S (centres undefined)	-20	77	nt	-4	i	0.73	103
COC(=O)C1=C(C)N=c2s/c(=C/c3ccoc3)c(=O)n2C1c1ccccc1 (centres undefined)	-444	57	-2.3	2	i	1	111
CCOC(=O)c1cnc(-n2nc(C)cc2C)nc1Nc1ccc(O)cc1	nt	nt	nt	nt	i	0.95	100
O=C(CCl)N(c1ccccc1)c1c[nH]c2ccccc12	-92	5	-2.9	-4	i	0.84	116
CN1CCN(S(=O)(=O)c2ccc(=O)[nH]c2)CC1	11	121	-0.1	-10	i	0.84	94
Cc1cc(SCC(=O)Nc2cccc(S(=O)(=O)N3CCOCC3)c2)nc2ccccc12	nt	nt	nt	-1	i	0.89	101
CCOC(=O)/C(CCC[N+](C)(CC)CC)=N\O	-17	92	-2.0	3	i	1	42
O=C(COc1cc(Cl)c(Cl)cc1Cl)Nn1cnnc1	-1	125	0.0	-3	i	0.8	107
O=C(c1ccc(F)cc1Cl)N(c1ccccn1)C1CCCCC1	nt	nt	nt	-1	i	1.1	95
Cc1cc(SCC(=O)c2cc3ccccc3o2)nc2ccccc12	-8	213	-2.1	-10	i	0.96	102
CCCCOc1ccccc1C1C(C(=O)OC)=C(C)N(C)C(C)=C1C(=O)OC	12	84	-1.6	1	i	0.94	102
NNC(=O)CCC(=O)Nc1ccccc1	nt	nt	nt	0	i	0.96	104
O=[N+]([O-])c1ccc(O)c(-c2nc(-c3ccccc3)c(-c3cccs3)[nH]2)c1	3	91	0.2	9	i	1.1	107
CCC(=O)Nc1cc(OC)c(NC(=O)c2ccccc2)cc1OC	0	103	-2.2	-2	i	0.99	97
COc1ccc(N2Cc3ccccc3C2)cc1Cl	nt	nt	-1.2	0	i	0.68	85
COC(=O)c1ccc(CSc2nc3sc(C)c(C)c3c(=O)[nH]2)cc1	nt	nt	nt	nt	i	0.87	103
CC(C)CC[n+]1ccn(-c2nc3ccccc3nc2[N-]S(=O)(=O)c2ccc(Cl)cc2)c1	nt	nt	nt	nt	i	0.99	103

By substructure, the compounds so far containing a Cl atom.
SMILES	Insulin prom inh	Insulin prom inh cell count	GALR2 ag	PKD1 kinase inh	HSV replic up	HSV replic up primary fold	RGS16-Gao HTS
CC1C/C(=N\NC(N)=S)c2cc(Cl)ccc2S1 (centres undefined)	nt	nt	nt	nt	i	0.98	100
O=C(O)Cc1ccc(OCc2ccc(Cl)nc2)cc1	19	114	nt	-3	i	0.87	98
COC(=O)Cc1ccc(Oc2ncc(C(F)(F)F)cc2Cl)cc1	nt	nt	nt	-1	i	0.97	99
O=C(Cc1ccc(Cl)cc1)OCc1nnc(-c2ccccc2)o1	nt	nt	nt	4	i	0.88	101
O=C(NCc1ccco1)c1cc(-c2ccc(Cl)cc2)on1	nt	nt	-3.5	-14	i	0.94	79
O=C(CCl)N(c1ccccc1)c1c[nH]c2ccccc12	-92	5	-2.9	-4	i	0.84	116
O=C(COc1cc(Cl)c(Cl)cc1Cl)Nn1cnnc1	-1	125	0.0	-3	i	0.8	107
O=C(c1ccc(F)cc1Cl)N(c1ccccn1)C1CCCCC1	nt	nt	nt	-1	i	1.1	95
COc1ccc(N2Cc3ccccc3C2)cc1Cl	nt	nt	-1.2	0	i	0.68	85
CC(C)CC[n+]1ccn(-c2nc3ccccc3nc2[N-]S(=O)(=O)c2ccc(Cl)cc2)c1	nt	nt	nt	nt	i	0.99	103

(cont.)
SMILES	Insulin prom inh	Insulin prom inh cell count	GALR2 ag	PKD1 kinase inh	HSV replic up	HSV replic up primary fold	RGS16-Gao HTS
CCCOc1ccc(/C=c2\sc3ncnn3c2=O)cc1	nt	nt	nt	4	i	1	102
COc1cc(/C=N/Nc2ccccc2C(F)(F)F)ccc1O	nt	nt	nt	1	i	1.1	98
O=C(Cn1nnc(-c2cccs2)n1)Nc1ccccc1C(F)(F)F	25	104	nt	-2	i	0.93	94
CC(CCn1cccn1)NC(=O)CCc1nnc(C2CCCCC2)o1 (centres undefined)	nt	nt	nt	8	i	1	104
C=CCNC(=O)c1onc(CSc2ccc(F)c(F)c2)c1C(=O)O	8	92	-1.4	-20	i	1.2	102
CCOC(=O)c1ccc(NS(=O)(=O)c2c(C)n(C)c(=O)n(C)c2=O)cc1	nt	nt	-2.3	12	i	0.97	107
COc1cc2c(cc1NC(=O)CC1SC(N3CCCC3)=NC1=O)oc1ccccc12 (centres undefined)	nt	nt	1.0	12	i	0.72	110
Cc1ccc(N2C(=O)CC3(CC4C=CC3C4)C2=O)cc1 (centres undefined)	nt	nt	-1.1	-3	i	0.98	103
CC1CCc2nn(CC(=O)Nc3c(F)cc(F)cc3Br)cc2C1 (centres undefined)	nt	nt	nt	-1	i	1.1	102
CC(C)C(=O)N1CCN(c2ccccc2NC(=O)COc2ccccc2)CC1	nt	nt	nt	-2	i	1	98
O=C(Nc1ccc(F)cc1)Nc1cc(OCC(F)(F)F)cc(OCC(F)(F)F)c1	3	81	-2.3	9	i	0.79	107
NC1=NC[C@@H](Cc2ccc(O)cc2)N1CCc1cccc(F)c1	nt	nt	nt	nt	i	0.89	101
Cc1noc(C)c1COC(=O)CCN1c2ccccc2Sc2ccccc21	-15	124	-1.7	1	i	1	111
COC(=O)Cc1cn(-c2ncc(C(F)(F)F)cc2Cl)c2ccccc12	0	102	-1.8	-8	i	0.81	106
O=C(ONC1=NCCCCC1)c1c(F)cccc1F	-77	87	-1.6	-3	i	0.91	91
Cc1ccc(C)c(C(=O)COC(=O)c2ccc(Br)o2)c1	3	101	-0.4	-4	i	0.9	109
Cc1ccc2nc(-c3ccc(NS(=O)(=O)c4ccc(F)c(F)c4)cc3)sc2c1	24	45	2.3	-3	i	1	104
CCN(CC)S(=O)(=O)c1cccc(NC(=O)COC(=O)c2cc(=O)c3ccccc3o2)c1	nt	nt	nt	-9	i	1.2	102
CCN(CC)S(=O)(=O)c1cccc(C(=O)N/N=C/c2ccc(OC)c(O)c2)c1	-4	86	-1.6	-6	i	1	136
CC1CCC(C(C)C)C(OC(=O)COC(=O)c2ccc(N)cc2)C1 (centres undefined)	nt	nt	-0.5	-8	i	1.2	100
CC1=Nc2cc([N+](=O)[O-])ccc2NC(C)(C)C1	nt	nt	nt	-10	i	0.94	103
COc1c(S(=O)(=O)N2CCCCC2)ccc2c(S(=O)(=O)N3CCCCC3)cccc12	-243	91	-1.3	-12	nt	nt	nt
CCNC(=S)Nc1ccc(OCC)cc1	57	72	-0.9	2	i	1	103
COc1cccc(-n2nnc3c(=O)n(Cc4ccc(C)cc4)cnc32)c1	29	29	-0.1	1	i	1	100
CCCc1nc2c(nnn2Cc2ccccc2F)c(=O)[nH]1	19	205	-2.1	-2	i	1.1	91
CCOC(=O)c1c(-c2ncc(C(F)(F)F)cc2Cl)noc1C	nt	nt	nt	-5	i	0.98	107
CCOc1ccc(N2C(=O)C(c3ccccc3)=C(c3nc4ccccc4s3)C2NC(C)=O)cc1 (centres undefined)	-453	66	-1.7	-4	i	0.77	97
C=CCNc1nc(Nc2ccc([N+](=O)[O-])cc2)nc(OCC)n1	nt	nt	1.7	8	i	0.94	106
CCOC(=O)C1=C(c2ccccc2)NC(=S)NC1c1ccc(Cl)cc1 (centres undefined)	nt	nt	nt	nt	i	1.1	88
CCOC(CNc1c([N+](=O)[O-])c(=O)n(C)c(=O)n1C)OCC	17	79	-0.6	-2	i	1	108
O=C(Nc1nc2ccccc2[nH]1)C1CCC1	nt	nt	nt	-4	i	0.68	89
O=C(O)C1=C[C@H](c2coc3ccccc3c2=O)C[C@H](OCCCCO)O1	nt	nt	nt	0	i	0.79	95
Cc1ccc(S(=O)(=O)NC(=O)c2cc(C)n(-c3ccc(N(C)C)cc3)c2C)cc1	nt	nt	-0.1	-2	i	1.1	100
CCN(CC)Cc1nc2c(c(=O)[nH]1)C1(CCCC1)Cc1ccccc1-2	-26	185	-0.7	-5	i	0.87	95
CCCS(=O)(=O)c1csc(C(=O)OC)c1N	nt	nt	nt	nt	i	0.84	105

An unsorted share of the library. About 1.3% of those tested had a hit in this group.
